# High-throughput results (PubChem BioAssay)
# hNpr1 antagonist = Natriuretic polypeptide receptor (hNpr1) antagonism - Primary qHTS | 1.6% of 76,000 active | Atrial natriuretic peptide receptor 1 (Homo sapiens), P16066 | HEK293 hNpr1 GloSensor cGMP, ANP-stimulated luminescence | Potency, µM (highest dose often 46.3 µM), for the others: at the top dose activity change, negative = inhibition, usual class: inhibitors; active = well fitted inhibition curve with a large enough effect; inconclusive = small, poorly fitted or top-dose-only effect; inactive = no such curve, though single readings can be large or run the other way;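 note: nearly all actives have a fitted effect of over 60% in size; nearly all hits also lower the signal before the agonist is added; a reference antagonist and vehicle were the controls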
# Target sequence (P16066 whole entry, looked up): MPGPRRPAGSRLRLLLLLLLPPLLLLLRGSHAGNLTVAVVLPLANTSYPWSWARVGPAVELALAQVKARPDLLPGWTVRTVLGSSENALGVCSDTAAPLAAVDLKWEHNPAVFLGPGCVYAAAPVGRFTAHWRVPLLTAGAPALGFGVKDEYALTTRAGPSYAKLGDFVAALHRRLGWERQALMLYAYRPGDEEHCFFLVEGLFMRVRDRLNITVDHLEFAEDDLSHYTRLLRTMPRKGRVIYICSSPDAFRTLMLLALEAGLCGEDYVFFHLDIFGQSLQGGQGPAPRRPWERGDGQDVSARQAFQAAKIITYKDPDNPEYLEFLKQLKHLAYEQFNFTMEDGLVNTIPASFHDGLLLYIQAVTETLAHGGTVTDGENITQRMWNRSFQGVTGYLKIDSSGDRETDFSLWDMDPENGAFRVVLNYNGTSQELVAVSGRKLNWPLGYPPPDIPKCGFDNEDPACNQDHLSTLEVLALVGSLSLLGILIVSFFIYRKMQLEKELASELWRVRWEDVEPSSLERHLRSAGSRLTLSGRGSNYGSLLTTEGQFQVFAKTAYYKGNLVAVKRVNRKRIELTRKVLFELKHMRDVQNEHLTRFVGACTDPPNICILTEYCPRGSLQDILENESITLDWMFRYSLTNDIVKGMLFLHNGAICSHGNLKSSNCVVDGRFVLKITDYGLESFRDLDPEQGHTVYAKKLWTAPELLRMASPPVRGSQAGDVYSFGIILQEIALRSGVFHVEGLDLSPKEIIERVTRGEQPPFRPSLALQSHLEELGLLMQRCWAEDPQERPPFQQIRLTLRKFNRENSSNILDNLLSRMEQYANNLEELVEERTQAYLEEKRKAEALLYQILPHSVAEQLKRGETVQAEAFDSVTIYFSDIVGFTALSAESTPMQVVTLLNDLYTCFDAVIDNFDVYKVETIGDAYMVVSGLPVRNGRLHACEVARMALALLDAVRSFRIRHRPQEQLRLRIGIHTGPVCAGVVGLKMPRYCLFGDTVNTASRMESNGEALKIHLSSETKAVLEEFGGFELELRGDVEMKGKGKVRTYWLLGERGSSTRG
#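 HEK293 cells stably expressing human Npr1 and cGMP GloSensor pGS-40F, loaded 2 h with 2% GloSensor reagent, given compound 30 min at room temperature. Luminescence read before and 20 min after 0.1 nM hNppA.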
# * marks the source's active call; other numbers are inactive results; ? = inconclusive; [ ] = remark or other dose. % is set by controls: 0 for no effect and ±100 for the full control effect; potency is the fitted concentration of half-maximal effect. An excerpt (hit frequency here may not be typical).
hNpr1 antagonist,smiles
5%,CCCCS(=O)(=O)Nc1ccc([C@H]2OCC(=O)N(Cc3ccc(OC)cc3)[C@@H]2CO)cc1
5%,Cc1noc(C)c1Cc1ccc(C(=O)NC2CCc3n[nH]c(=O)n3CC2)o1 (stereo unspecified)
0%,O=C1CCCN1CCC1CCN(Cc2cccc(OCC(O)CN3CCOCC3)c2)CC1 (stereo unspecified)
4%,O=C(NCCC1CCN(C(=O)Nc2ccccc2F)CC1)c1ccccc1F
-25%[70.6 µM],CC1(C(=O)NCC2CC2)CCCc2cnc(Nc3ccccc3)nc21 (stereo unspecified)
1%,Cn1cncc1C(=O)NC1CCN(c2ccc(=O)n(C)n2)CC1
2%,COc1ccc(Cc2nc3nccc(-c4cccnc4)n3n2)cc1
2%,O=C1CCN(C(=O)c2cc3ccccc3[nH]2)CCOCCN1
-1%,CN1CCN(C(=O)N2CCn3nc(CN4CCC(CO)CC4)cc3C2)CC1
0%,COc1ccc(C(=O)N2CCC3(CC2)CC(OC)CCO3)cc1 (stereo unspecified)
-17%,CC1CCCN1c1ncnc2c1CN(c1ccc(Cl)cc1)C(=O)CN2C (stereo unspecified)
1%,O=C(NCc1ccc(-n2cncn2)cc1)C1NCCc2[nH]cnc21 (stereo unspecified)
11µM*,COc1ccc(C(=O)N2CCC(Oc3ccc(-c4noc(-c5ccccc5)n4)cc3)C2)cn1 (stereo unspecified)
3%,O=C1NCCC[C@@H]1NC(=O)[C@H]1CN(C(=O)c2cccc(F)c2)CCN1S(=O)(=O)c1ccc(F)cc1
1%[70.6 µM],CCCCN1C(=O)[C@@H]2C[C@@H](O)CN2C2(CN(C3CCN(C(C)=O)CC3)C2)C1=O
1%,N#Cc1ccc(S(=O)(=O)N2CCCCCCNC(=O)[C@@H]3CCCC[C@@H]32)cc1
-18%,COc1ccc(OC)c(CN2CCCn3nc(C)c(-c4cccnc4N4CCOCC4)c32)c1
-10%,CN1CCN(C(=O)CCc2ccc(=O)[nH]n2)CC12CCNC(=O)CC2 (stereo unspecified)
4%,COCCc1noc(-c2ccccc2OC2CN(C(=O)c3cnccn3)C2)n1
-2%,Cc1nc(-c2cn(C3CCCN(C(=O)c4cccc(C#N)c4)C3)nn2)no1 (stereo unspecified)
?,Cc1noc(-c2ccc(OC3CN(C(=O)C(C)c4ccccc4)C3)cc2)n1 (stereo unspecified)
0%,O=C(c1ccccc1)N1CCC(n2cc(-c3nc(-c4ccccc4)no3)nn2)CC1
2%,COC(=O)[C@H](NC(=O)[C@@H]1[C@@H](NC(=O)Nc2cccc(OC)c2)CCN1C(=O)CSC)C(C)C
5%,c1cncc(-c2nc3c(c(NCc4ccccc4-n4ccnc4)n2)CNC3)c1
-15%,Cc1ccccc1N1Cc2c(ncnc2N2CCOCC2)N(C)CC1=O
-15%,COC1CCC12CCN(C(=O)c1ccc3[nH]ccc3c1)CC2 (stereo unspecified)
-14%,Cc1ccccc1OCC(=O)N1CCc2c(nc3cc(-c4ccccc4Cl)[nH]n3c2=O)C1
-15%[70.6 µM],CCS[C@H]1CCN2C(=O)c3cc(-c4ccccc4)ccc3NC(=O)[C@H]12
2%,COc1ccc2cc1Nc1ccc(cc1)C[C@H](NCc1ccc(C)o1)C(=O)N(C)[C@H](C(=O)NCCC(C)C)C2
-10%,Cn1cc(CN2C[C@H](C(=O)Nc3ccc(F)cc3)C[C@H]2c2cccc(C(F)(F)F)c2)cn1
0%,O=C(Cc1ccc(Cl)cc1)N1CC2CC(C1)[C@H]1CCCC(=O)N1C2 (stereo partly specified)
2%,Cc1nc(-c2cccc(Cl)c2)n(CC(=O)NC(C)C)c(=O)c1CCO
-1%,CSCCC(=O)N1CCc2c(ncnc2N2CCOCC2)C1
?,CNC(=O)[C@@H]1C[C@H](Oc2ccccc2)CN1C(=O)CCCc1c[nH]c2ccccc12
5%,O=C(O)c1cnc(N2CCCCC2)nc1-c1ccncc1
-14%,O=C(CCc1cccnc1)N1CC[C@@H](c2ccc3ccccc3c2)[C@H](O)C1
11µM*,Cc1nn(C)c(C)c1CCCN(C)C(=O)c1ccc2c(c1)C(O)CCCCCN2C (stereo unspecified)
4%,Cc1ccc(NC(=O)N2CCc3[nH]c4ccc(F)cc4c3C2)cc1C
-2%[70.6 µM],O=C(c1cnccn1)N1CC[C@H]2COC(=O)N2c2cc(F)ccc2C1
0%,COc1ccccc1CC(=O)N1CCC(n2cc(-c3nc(-c4ccccc4)no3)nn2)CC1
4%,COc1ccc(F)c(-c2nc(CN(C)CC3(CO)CC3)c(C)o2)c1
2%,CN1[C@@H](CCC(=O)N2CCC(O)CC2)CNC(=O)[C@@H]2[C@H]1CCN2Cc1cccc(OC(F)(F)F)c1
2%,CC(C)NC(=O)N1CC(C(=O)NCc2ccc3c(c2)OCO3)CC(c2ccccc2)C1 (stereo unspecified)
2%,Cc1ccc([C@@H]2CN(C(=O)CCc3c(C)nn(C)c3C)C[C@H]2N(C)C)cc1
-1%,O=C(c1ccc(C(F)(F)F)cc1)N1CC2CC(C1)[C@H]1CCCC(=O)N1C2 (stereo partly specified)
4%,CCN1c2cc(C(=O)Nc3ccc(F)cc3F)ccc2C(=O)N2CCCCCC21 (stereo unspecified)
-10%,Cc1ncoc1C(=O)N1CCc2nnc([C@@H]3C[C@@H](O)CN3C(C)C)n2CC1
1%,Cc1cccc(C)c1NC(=O)N1CCC(n2cc(-c3cccnc3)nn2)CC1
-2%,CCOc1ccc(CC(=O)NC2CCN(c3cc(-c4cccs4)[nH]n3)C2)cc1OCC (stereo unspecified)
7%,CCc1noc(-c2cn(C3CCN(C(=O)c4ccc(C#N)cc4)CC3)nn2)n1

# Remaining list, next part
hNpr1 antagonist,smiles
-1%,COc1ccc(-c2cc(N3CCCC(NC(=O)C4CCN(C(C)=O)CC4)C3)n[nH]2)cc1 (stereo unspecified)
0%,CCn1ccc(C(=O)N2C[C@@H](Oc3cccnc3)C[C@@H]2C(=O)NCCOC)n1
-2%,NC(=O)C1CCN(C(=O)C[C@@H]2CCNC[C@@H]2Cc2cc(COc3ccccc3)on2)CC1
13%,CC(=O)Nc1ccc(CC(=O)N2CCc3c(c(-c4nncn4CC4CC4)nn3C)C2)cc1
-20%,CC(C)c1ccc(CNc2ncncc2-c2nc(-c3ccccc3)no2)cc1
7%,COCCN1CC(CO)C2(CCN(C(=O)Cc3ccccc3)CC2)C1 (stereo unspecified)
4%[70.6 µM],CN1CCN(C(=O)c2ccnc(-c3nnc4ccc(N(C)c5ccccc5)nn34)c2)CC1
-14%[70.6 µM],COC(=O)N(C)C(C)c1cccs1 (stereo unspecified)
4%[70.6 µM],COCCn1c(=O)c2c(n1Cc1ccccc1)CN(C(=O)c1cccc(C#N)c1)CC2
0%,CCc1ccc(OCC(=O)c2ccc3c(c2)N(CCCC(=O)NCC2CCCO2)C(=O)CO3)cc1 (stereo unspecified)

# Reprinted at random: 6 records from the list, in no set order.
hNpr1 antagonist,smiles
4%[70.6 µM],COCCn1c(=O)c2c(n1Cc1ccccc1)CN(C(=O)c1cccc(C#N)c1)CC2
-20%,CC(C)c1ccc(CNc2ncncc2-c2nc(-c3ccccc3)no2)cc1
13%,CC(=O)Nc1ccc(CC(=O)N2CCc3c(c(-c4nncn4CC4CC4)nn3C)C2)cc1
4%[70.6 µM],CN1CCN(C(=O)c2ccnc(-c3nnc4ccc(N(C)c5ccccc5)nn34)c2)CC1
7%,COCCN1CC(CO)C2(CCN(C(=O)Cc3ccccc3)CC2)C1 (stereo unspecified)
0%,CCc1ccc(OCC(=O)c2ccc3c(c2)N(CCCC(=O)NCC2CCCO2)C(=O)CO3)cc1 (stereo unspecified)

# More structures
hNpr1 antagonist,smiles
4%,C=CCNC(=O)C(NC(=O)c1ccc2c(c1)OCO2)C1CCN(C(=O)c2ccc(OC)cc2)CC1 (stereo unspecified)
-4%,CC(C)c1ccc(NC(=O)O[C@@H]2CO[C@H]3[C@@H]2OC[C@@H]3NC(=O)Nc2cccc(C#N)c2)cc1
-4%,O=C(CN1CC2CC(C1)[C@H]1CCCC(=O)N1C2)NCCCN1CCCCC1 (stereo partly specified)
2%,CN1CCN(C(=O)[C@@H]2CCC[C@@H](NC(=O)c3nc4ccccc4s3)CN(C)C(=O)C2)CC1
6%[70.6 µM],O=C1NC2(CCN(CC3CCCCC3)C2)Oc2ccccc21 (stereo unspecified)
-8%[70.6 µM],COCCNc1ccc(-c2noc([C@@H]3CCCN3C3CCC3)n2)cn1
-5%,COCCNC(=O)[C@H]1CN(Cc2ccccc2)C[C@H]1C(=O)O
6%,COCC(=O)NC1CCC12CCN(C(=O)c1cccc3[nH]ccc13)CC2 (stereo unspecified)
0%,Cc1ccc(NC(=O)CN2C(=O)NC3(CCS(=O)(=O)CC3)C2=O)cc1
-9%,COc1cccc(-c2ccc(C(=O)N3CCC4(CCCN(C)C4=O)C3)o2)c1 (stereo unspecified)
2%[70.6 µM],COCC(=O)N1CCN2C(=O)N(CC(N)=O)C(=O)[C@@H]2C1
-21%[70.6 µM],Cn1ccc2c(C(=O)NCc3cccnc3)nc(-c3cccc(O)c3)cc21
1%,CC(=O)N1CCc2nc(-c3ccccc3)nc(-c3ccc(Cl)cc3)c2C1
6%,CCn1cc(S(=O)(=O)N2CCCCC2c2n[nH]c(C)n2)cn1 (stereo unspecified)
-1%[70.6 µM],COc1ncccc1CNC[C@H]1O[C@@H]2C[C@@H](CC(=O)N3CCOCC3)O[C@@H]2[C@@H]1O
-20%,CN(C)C(=O)c1ccc(OC2CCN(C(=O)c3ccc(F)cc3F)CC2)nc1
?,Fc1ccc(-c2ccc3ncc(Nc4ccnc(N5CCOCC5)c4)n3n2)cc1
-27%,CC(C)Cc1cc(C(=O)N2CCN(CCOc3ccccc3)CC2)on1
3%,Cc1ccc(C(=O)N2CCCn3ccnc3C2C(C)C)c(=O)[nH]1 (stereo unspecified)
3%,Cn1nc(C(=O)N2C[C@@H](Oc3cccnc3)C[C@H]2C(=O)NC2CC2)c2ccccc21

# The final 3 entries of the part before are carried over, then new ones follow.
hNpr1 antagonist,smiles
-27%,CC(C)Cc1cc(C(=O)N2CCN(CCOc3ccccc3)CC2)on1
3%,Cc1ccc(C(=O)N2CCCn3ccnc3C2C(C)C)c(=O)[nH]1 (stereo unspecified)
3%,Cn1nc(C(=O)N2C[C@@H](Oc3cccnc3)C[C@H]2C(=O)NC2CC2)c2ccccc21
14%,O=C(C1CCC1)N1CCC(c2nc(C3CCOCC3)no2)CC1
-1%,Cc1cccc(OCC(=O)N2CCCC(c3[nH]ccc3C(N)=O)C2)c1 (stereo unspecified)
0%,O=C(NC1CC1)[C@@H]1C[C@H](Oc2ccccc2)CN1C(=O)c1ccc2ncccc2c1
4%,COc1ccc(OC)c(C2CCN(c3ncncn3)C2)c1 (stereo unspecified)
7.9µM*,Cc1cc(N2CCCC(Cn3cc(Cc4ccccc4)nn3)C2)nc(N)n1 (stereo unspecified)
-18%,Cc1ccc(C)c(OCC(=O)c2ccc3c(c2)N(CCCC(=O)NCC2CC2)C(=O)CO3)c1
-8%[70.6 µM],O=c1cc(-c2ccccn2)oc2c(-c3ccccc3F)nccc12
-17%,CC(C)c1noc(-c2cn(C3CCCN(C(=O)c4ccc(N(C)C)cc4)C3)nn2)n1 (stereo unspecified)
-6%,Cc1cc(C)n(Cc2ccc(C(=O)NCC3Cn4cccc4CN3Cc3ccccc3)o2)n1 (stereo unspecified)
5%[70.6 µM],c1ccc(O[C@H]2COCCN(C3CCOCC3)C2)cc1
6%,CC(=O)N1CC2(Cc3ccccc31)CN(C(=O)c1ccccc1Cl)C2
1.4µM*,CC(C)c1ccc(C(=O)N2CCC(Cc3nc(-c4ccc(F)cc4)no3)CC2)cc1
2%,CN(C)C[C@@H]1CN(Cc2ccncc2)C[C@H]1NS(=O)(=O)Cc1ccccc1
4%[70.6 µM],COc1ccc(O[C@H]2COCCN(C(=O)c3cc(C)oc3C(F)(F)F)C2)cc1
3%[70.6 µM],O=C1CCCCCN1C1CCN(Cc2ccc(F)cc2)CC1
1%,COc1ccccc1C1CNC(=O)c2nc(CCN3CCC(C)CC3)[nH]c2C1 (stereo unspecified)
-7%,OCC1(O)CCCN(Cc2cnc(NCc3ccccc3)nc2)C1 (stereo unspecified)
4%,CC(=O)Nc1ccc(C(=O)N2CCCC(c3nc(C)ncc3-c3cccc(C)c3)C2)cc1 (stereo unspecified)
5%,O=c1n(CC2CC2)nc2n1CCNCC2
2%[70.6 µM],COCCn1cnc2ccc(-c3ccsc3)nc2c1=O

# Sorted by length of the SMILES (smallest number first): part of the list above.
hNpr1 antagonist,smiles
-15%,Cc1ccccc1N1Cc2c(ncnc2N2CCOCC2)N(C)CC1=O
1%,Cc1cccc(C)c1NC(=O)N1CCC(n2cc(-c3cccnc3)nn2)CC1
-18%,COc1ccc(OC)c(CN2CCCn3nc(C)c(-c4cccnc4N4CCOCC4)c32)c1
2%,CN1CCN(C(=O)[C@@H]2CCC[C@@H](NC(=O)c3nc4ccccc4s3)CN(C)C(=O)C2)CC1

# Later entries.
hNpr1 antagonist,smiles
-2%[70.6 µM],CS(=O)(=O)NC[C@H]1OC[C@@H](NCc2ccc(S(C)(=O)=O)cc2)[C@@H]1O
-4%,O=C(CN1CCCC1=O)NC1CCCc2nc(-c3ccccc3)ncc21 (stereo unspecified)
4%,CCn1cc(CN2CCCC(c3nc(C(C)C)no3)CCNC(=O)CC2)cn1 (stereo unspecified)
-2%,NC(=O)c1ccc(O[C@@H]2COCC[C@H]2NC(=O)CN2CCOC2=O)cc1
0%,Cc1occc1C(=O)N1C[C@H]2OC(=O)N(CCCN3CCOCC3)[C@H]2C1
4%,CC(NC(=O)C1CCN(C(=O)c2ncn3c2COC(c2ccc(F)cc2)C3)CC1)c1ccc(F)cc1 (stereo unspecified)
7%,COCC(=O)N1CCc2nc(C(C)C)nc(-c3ccc(O)cc3)c2C1
4%[70.6 µM],O=C(c1ccc(F)cc1)N1CCN(c2nc3ncccc3o2)CC1
